Compound activity deposited in PubChem BioAssay by Broad Institute.
FGF22 binding – binders of recombinant human FGF22 by thermal shift. hit rate 1.5% among 340,000. calls only at 9.99 µM. Q9HCT0. SYPRO orange fluorescence; percent of sucrose octasulfate shift, DMSO zero;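 active means melting point raised past a set limit in the mean and every replicate; inconclusive means no clear call; three in four hits are not shown here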
Target sequence (Q9HCT0 whole entry, looked up): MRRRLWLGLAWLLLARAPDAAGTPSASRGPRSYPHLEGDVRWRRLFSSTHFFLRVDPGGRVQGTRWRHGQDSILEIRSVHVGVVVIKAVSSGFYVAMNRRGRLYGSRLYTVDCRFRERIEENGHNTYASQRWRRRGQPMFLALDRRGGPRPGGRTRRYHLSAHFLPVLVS
Ecoli rRNA inh – inhibits bacterial ribosomal RNA function over humanized ribosomes | GFP signal change (wild-type ribosome), % (test concentration not listed) | E. coli WT GFP vs humanized-ribosome RFP mutants, fluorescence, 24 h; hits give low values; DMSO median 0, no signal -100 | hit rate 1.6% among 350,000;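 active means significant combined selectivity score with lowered wild-type GFP, culture density cut under 30%, mutant RFP and density less affected; inactive means any of these conditions unmet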; further: one replicate is shown; some compounds called inactive have numbers as strong as hits
RanGTP-Impb inh – inhibitors of RanGTP-importin-beta interaction, primary screen, biochemical, FRET, CFP-Ran, YFP-importin-beta, homogeneous | inhibition, % (no concentration beside the values) | hit rate 1.1% among 300,000 | AID 2216 | cell-free CFP-Ran/YFP-importin-beta FRET ratio;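 active means most replicates above 15%; inconclusive means exactly half above 15%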;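 further: 0% = DMSO wells and 100% = Ran loaded with GDP instead of GTP; wells of about 40 µL received 100 nL stock; the first replicate is given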
ALR H2O2 inh – human ALR oxidase inhibition via reduced H2O2; purified ALR, DTT oxidation, H2O2 HRP-luminol luminescence; hit rate 3.8% among 290,000; inhibition, % (concentration not given with the values); P55789;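 active means mean and each replicate at 75% or more; inconclusive means only one of the two met; inactive means neither met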;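 further: stock transfer was 7.5 nL into about 7.5 µL; 0% = neutral wells and 100% = wells with inactivated enzyme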
Target sequence (P55789 whole entry, looked up): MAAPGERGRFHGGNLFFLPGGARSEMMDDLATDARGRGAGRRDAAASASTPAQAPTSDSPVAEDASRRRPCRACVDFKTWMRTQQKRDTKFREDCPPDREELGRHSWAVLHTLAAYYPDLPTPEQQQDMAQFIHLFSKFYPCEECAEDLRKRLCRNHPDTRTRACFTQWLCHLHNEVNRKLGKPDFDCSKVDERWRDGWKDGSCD
T cruzi inh – blocks replication of Trypanosoma cruzi; T. cruzi beta-gal in NIH3T3, luminescence, 90 h; inhibition, % (test concentration not listed); hit rate 1.4% among 300,000;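 active means mean inhibition across valid replicates above about 55%, limit read from the data; inconclusive means mean below that limit but half or more replicates reach it; inactive means mean below it, under half of replicates reach it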;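 further: signal also drops with host cell toxicity which is not excluded here; 0% = plate median of DMSO wells and 100% = zero luminescence signal; higher percent means less beta-gal luminescence so fewer parasites; stock transfer was 50 nL into about 50 µL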
MLL AF4-AF9 inh – inhibitors of human MLL-AF4/AF9 interaction; hit rate 0.47% among 350,000; inhibition, % at 10 µM; AlphaScreen, biotin-AF4 peptide binding to FLAG-AF9; P42568;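 active means every replicate reaching a set inhibition limit, whatever the replicate mean, cut at about 25% in these data; inconclusive means mean inhibition reaches that limit but some replicates miss it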;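 further: 0% = plate neutral control median and 100% = total signal loss; the record names both 10 and 1 µM as test concentration; the first replicate is given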
Target sequence (P42568 whole entry, looked up): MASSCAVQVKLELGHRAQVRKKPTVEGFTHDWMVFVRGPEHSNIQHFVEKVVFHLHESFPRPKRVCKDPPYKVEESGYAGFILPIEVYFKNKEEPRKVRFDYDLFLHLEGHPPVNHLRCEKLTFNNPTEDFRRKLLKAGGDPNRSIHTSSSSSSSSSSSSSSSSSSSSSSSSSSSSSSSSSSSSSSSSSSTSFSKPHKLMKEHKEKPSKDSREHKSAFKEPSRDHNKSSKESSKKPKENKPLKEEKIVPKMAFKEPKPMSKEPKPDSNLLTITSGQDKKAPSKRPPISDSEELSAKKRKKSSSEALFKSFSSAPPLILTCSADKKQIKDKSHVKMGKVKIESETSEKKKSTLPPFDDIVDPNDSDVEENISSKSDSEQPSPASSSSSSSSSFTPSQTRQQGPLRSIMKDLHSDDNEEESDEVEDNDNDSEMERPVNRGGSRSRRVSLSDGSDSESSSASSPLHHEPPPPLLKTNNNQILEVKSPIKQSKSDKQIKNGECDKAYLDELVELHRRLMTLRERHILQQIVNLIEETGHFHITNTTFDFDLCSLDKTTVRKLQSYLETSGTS
Beta apoptosis – beta cell apoptosis inhibition | INS-1E cytokine-induced death, ATP luminescence, 48 h; percent of positive-control rescue, neutral wells zero | protection from apoptosis, % (test concentration not listed) | hit rate 0.8% among 300,000 | AID 435005;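 active means all replicates at 75% or more, or half of them and the mean; inconclusive means half reach 75% but not the mean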;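 further: 0% = cytokine-treated negative control wells and 100% = positive control rescue; higher means more ATP so stronger rescue from cytokine killing; wells of about 40 µL received 100 nL stock; the first replicate is given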
Calb FLC – affects C. albicans growth with fluconazole | C. albicans CaCi-2 (fluconazole-resistant clinical isolate) + fluconazole, Alamar Blue growth, 48 h | growth inhibition, % (test concentration not listed) | hit rate 0.57% among 300,000 | AID 1979;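 active means most replicates above 75%; inconclusive means exactly half above 75%; inactive means most below 75%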;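 further: all wells also contain fluconazole at 8 µg/ml as a sub-toxic cotreatment; 0% = median of DMSO wells and 100% = median of geldanamycin control wells; wells of about 8 µL received 7.5 nL stock; the first replicate is given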
Ecoli rRNA inh OD600 – second read-out of Ecoli rRNA inh, no call of its own (marks repeat the call); OD600 change, %; measured here: OD600 growth;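 optical density of the mix in the first replicate; 0 = DMSO median and -100 = no signal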
Ecoli rRNA inh RFP – second read-out of Ecoli rRNA inh, no call of its own (marks repeat the call); RFP signal change, %; measured here: RFP humanized mutant strains;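 first replicate; 0 = DMSO median and -100 = no signal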
Active calls of the source: *; i = inactive; ? = inconclusive; / = no result given; + = active, no number.

SMILES	FGF22 binding	Ecoli rRNA inh	Ecoli rRNA inh OD600	Ecoli rRNA inh RFP	RanGTP-Impb inh	ALR H2O2 inh	T cruzi inh	MLL AF4-AF9 inh	Beta apoptosis	Calb FLC
CN(c1ccc(C(=O)NCc2ccccn2)cc1)S(=O)(=O)c1ccc(Cl)cc1	i	-8	-16	-1.0	2.8	1	6	0.3	-4	9
CC1(C)CC(=O)C(C2C3=C(CC(C)(C)CC3=O)OC3=C2C(=O)CC(C)(C)C3)=C(O)C1	i	-2	-20	-0.3	-3.5	-6	-1	-1.0	-1	1
COCCOC(=O)C1=C(C)Nc2ncnn2C1c1ccco1 (centres undefined)	i	5	10	-1.0	2.4	/	-18	1.7	-2	-5
COc1cc2c(cc1NC(=O)COC(=O)[C@@H](NS(=O)(=O)c1ccccc1)C(C)C)oc1ccccc12	/	/	/	/	0.9	0	30	/	10	9
COc1ccc(/C=N/NC(=O)c2ccccc2[N+](=O)[O-])cc1CN1CCc2cc(OC)c(OC)cc2C1C (centres undefined)	i	6	3	1.9	1.9	-3	2	7.9	2	9
COc1ccc(-c2nc(CN3CCCCC3c3cccnc3)c(C)o2)c(F)c1 (centres undefined)	i	-4	-7	-0.5	-3.7	0	64*	1.7	4	3
Cc1ccnc(NC(c2ccccn2)c2c(C)[nH]c3ccccc23)c1 (centres undefined)	/	18	6	6.0	-7.7	98*	-4	12	-48	-2
CC1CN(C(=O)C(c2ccccc2)c2ccccc2)CC(C)O1 (centres undefined)	/	/	/	/	2.1	1	-5	/	-7	17
C=CCSc1nc2sc(C)c(C)c2c(=O)n1N	/	/	/	/	0.4	-1	-13	/	1	-27
Cc1nc2sc(-c3ccccc3)cc2c(=O)n1/N=C/N(C)C	i	-4	-9	-1.8	3.5	/	-11	-2.8	-6	34
O=C(OCc1nnc(-c2ccccc2)o1)c1ccc(CO)cc1	i	-10	-15	-2.5	0.6	-14	-3	-1.8	-6	-24
Cc1ccc(C(=O)Nc2sc3c(c2C(=O)O)CCC(C)C3)o1 (centres undefined)	i	-19	-28	-5.8	/	?	/	1.1	3	/
COc1cccc(OC)c1C(=O)N1CCN=C1SCc1cccnc1	/	/	/	/	2.0	99*	-1	/	-2	0
Fc1ccc(/C=N/Nc2ncnc3nc[nH]c23)cc1F	i	-17	-15	-4.5	0.5	/	-10	2.7	1	3
COc1ccc(S(=O)(=O)N2CCOC2CNC(=O)C(=O)NCCc2ccc(OC)c(OC)c2)cc1C (centres undefined)	/	/	/	/	-1.9	-21	-11	/	-5	?
CCCCNC(=S)N1CCN(c2ccccc2Cl)CC1	/	-39	-69	-2.6	1.8	-18	-11	-1.2	-1	1
CC(=O)c1ccc(N2CCN(C(=O)CCNC(=O)Cn3ccc4ccccc4c3=O)CC2)cc1	i	0	-2	-1.4	1.2	-23	-8	8.8	2	6
COC(=O)c1ccc(NC(=O)C2CCCN(S(=O)(=O)c3cnc[nH]3)C2)cc1 (centres undefined)	i	3	-2	0.3	0.2	57	7	5.2	/	4
CC(=O)N/C(=C\c1ccccc1)C(=O)Nc1ccccc1C	i	8	14	3.5	0.8	/	-4	0.1	-10	-25
CCOC(=O)C1=C(C)N=C2SC=C(C)N2C1c1ccc(OC)cc1 (centres undefined)	i	-10	-8	0.5	9.6	0	6	-0.2	-2	-8
COc1ccc(CC(=O)Nc2ccc3c(c2)OCO3)cc1S(=O)(=O)N1CCOCC1	/	/	/	/	-1.6	-2	-5	/	-2	-1
O=C(NCc1ccc(F)cc1)C(c1ccccc1)N(C(=O)c1csnn1)c1ccccc1 (centres undefined)	i	6	4	-0.3	2.4	0	-4	-0.4	-4	2
Cc1cc(NC(=O)CSc2nc(-c3cccs3)cc(C(F)(F)F)n2)no1	/	/	/	/	-3.9	5	-34	/	/	19
C/C(=N\Nc1ccc(F)cc1F)c1ccccc1O	i	-19	-5	-2.1	0.4	24	-14	1.1	-7	5
CCOC(=O)c1c(C)c(C(=O)N2CCc3ccccc3C2)c(C)n1CC	/	/	/	/	-1.3	1	30	/	0	-3
N#CCCN1CCN(Cc2cc(-c3ccccc3)ccc2O)CC1	/	/	/	/	5.9	30	0	/	-5	?
C[C@@H](C(=O)NCc1ccco1)N1C(=O)N2CCc3c([nH]c4ccccc34)[C@@]2(C)C1=O	i	/	/	/	0.7	/	-21	5.0	-2	-1
CC1CC(C)CN(c2oc(-c3ccccc3Cl)nc2C#N)C1 (centres undefined)	i	12	12	2.4	-1.9	-5	30	7.5	9	14
CC(C)(C)OC(=O)NC(CCCCNC=O)C(=O)O (centres undefined)	/	/	/	/	2.9	-10	-8	/	3	7
O=C(CS(=O)(=O)c1ccccc1)N1CCCCCC1	/	/	/	/	1.7	-8	-1	/	2	-5
Cc1ccccc1OCC(=O)O/N=C(\N)Cc1cccs1	/	/	/	/	2.4	0	-11	/	/	-7
Cc1ccnc(NCc2ccccc2O)c1	i	2	5	0.4	-0.8	25	2	2.4	-3	-6
COc1cccc2c1OC[C@@H](CO)[C@H]2N(C)C(=O)Nc1ccccc1	i	-5	11	0.9	4.8	/	1	2.8	/	-3
CCc1ccc(-c2csc(NC(=O)COC(=O)CCc3nc4ccccc4s3)n2)cc1	/	/	/	/	-4.7	/	-3	/	-8	-6
Cc1ccc(-c2cc(C(=O)N/N=C/c3c(C)nn(-c4ccccc4)c3C)n[nH]2)s1	i	-30	-55	-1.7	-2.6	/	-35	0.9	/	51
COc1ccc(C2=NOC(Cn3nc(C(=O)NCc4ccc(C)cc4)cc3-c3ccccc3)C2)cc1 (centres undefined)	i	8	5	0.5	0.9	2	22	/	2	-4
CCc1ccc(C(C(=O)NCCOC)N(C(=O)Cn2nnc3ccccc32)c2cccnc2)cc1 (centres undefined)	/	/	/	/	3.9	/	1	/	4	23
CN(Cc1ccccc1)c1nc(-c2cccc([N+](=O)[O-])c2)nc2ccccc12	/	/	/	/	3.2	/	27	/	0	17
COc1ccc(-n2nnnc2SCC(=O)Nc2cccc(O)c2)cc1	i	-5	-3	-5.1	-1.3	0	-7	2.9	-2	23
CSc1ncccc1C(=O)NC1CCCCCC1	i	7	9	1.1	-1.9	-4	-22	-1.1	-6	-11
Cc1nc(N2CCN(c3ccccn3)CC2)c2c(C)c(C(=O)N3CCN(c4ccc(F)cc4)CC3)sc2n1	i	6	3	2.8	6.3	0	37	1.4	6	1
CC1CCN(C(=O)Cn2cc(SCC(=O)NCC3CCCO3)c3ccccc32)CC1 (centres undefined)	i	0	-1	-6.4	-0.1	/	15	-0.6	-7	-11
CCOC(=O)CN(C)Cc1cn(C)nc1-c1ccc(Oc2ccccc2)cc1	i	-20*	-13*	7.6*	-3.0	-5	-10	3.6	-4	-5
O=c1[nH]c(-c2ccccc2)nc2sc(-c3ccccc3)cc12	i	17	15	4.7	0.5	2	-32	-1.5	3	-7
COc1ccc(Cc2nn3c(-c4cc(OC)c(OC)c(OC)c4)nnc3s2)cc1	/	/	/	/	-0.3	-17	37	/	3	16
O=C(NCCS(=O)(=O)c1ccc(Br)cc1)c1ccc(F)cc1	i	14	6	-1.2	2.8	-5	-1	-2.1	-2	7
COc1ccc(C(=O)Nc2ccc(S(=O)(=O)N3CCCC3)cc2)cc1[N+](=O)[O-]	i	-1	5	-3.5	-1.1	-9	11	-1.3	0	4
O=C(COC(=O)/C=C/c1cccc(F)c1)NC(=O)NCc1ccccc1	i	7	16	-1.0	/	-6	/	-4.1	-2	/
CCCCNC(=O)c1onc(CSc2cccc(OC)c2)c1C(=O)NCCCC	i	5	3	-3.2	?	2	38	-8.6	/	4
COC(=O)c1[nH]c2cc(OC)c(OC)cc2c1NC(=O)c1cccc(OC)c1	/	/	/	/	-1.1	1	8	/	5	-8
CCOC(=O)C1CCCN(c2c(NCCc3cccc(C)c3)c(=O)c2=O)C1 (centres undefined)	i	-1	-4	-12	-0.8	-5	-1	-0.5	2	2
Cc1ccccc1-c1ccnc2[nH]n(-c3ccccc3)c(=O)c12	i	2	2	0.5	-5.4	1	-4	1.4	6	79*
NCCCCCc1nnc(SCc2ccc(Cl)cc2Cl)o1	/	/	/	/	-0.4	99*	12	/	-8	-5
CS(=O)(=O)c1ccc(Cl)c(NC(=O)CSc2n[nH]c(N)n2)c1	i	6	8	-3.1	-2.4	-1	-8	-0.3	/	-1
O=C(NNC(=O)c1ccccc1O)c1ccc(NS(=O)(=O)c2ccc(F)c(F)c2)cc1	+	-14	-28	0.9	-3.1	7	1	-3.3	/	-5
O=[N+]([O-])c1ccccc1/C=N/N1CCN(c2ccncc2S(=O)(=O)N2CCCCC2)CC1	/	/	/	/	?	/	76*	/	9	11
CC(=O)NCc1ccc(C(=O)CSc2nnc(-c3ccncc3)n2Cc2ccccc2)o1	/	/	/	/	1.8	-3	-10	/	-2	6
COc1ccc(C(=O)Cn2nnc(-c3ccccc3NC(=O)c3ccco3)n2)cc1	/	/	/	/	-2.5	-3	21	/	-3	-26
CCc1ccc(C(=O)C(C)OC(=O)Cn2[nH]c(=O)c3ccccc3c2=O)cc1 (centres undefined)	i	3	6	1.1	/	0	/	3.2	0	/
CCCn1c(N)c(N(CCOC)C(=O)CSCC(=O)Nc2ccc(C)cc2)c(=O)[nH]c1=O	i	4	7	-2.0	/	-6	/	-1.1	-4	/
Additional structures
SMILES	FGF22 binding	Ecoli rRNA inh	Ecoli rRNA inh OD600	Ecoli rRNA inh RFP	RanGTP-Impb inh	ALR H2O2 inh	T cruzi inh	MLL AF4-AF9 inh	Beta apoptosis	Calb FLC
N#Cc1cc(C(=O)c2cc(Cl)ccc2O)cn(-c2ccccc2)c1=O	/	/	/	/	1.7	20	13	/	8	0
CC(=O)NS(=O)(=O)c1ccc(NC(=O)c2cc(-c3ccc(C)c(C)c3)nc3ccccc23)cc1	/	/	/	/	-0.4	97*	-26	/	4	-1
Cc1ccc(C(=O)Nc2ccccc2C(=O)NCC2CCCO2)cc1 (centres undefined)	i	/	/	/	3.9	28	-7	-0.4	-2	-6
CCOC(=O)C1C(=O)C=C(c2cccs2)CC1c1ccccc1C (centres undefined)	/	/	/	/	-2.1	/	26	/	1	9
CCOC(=O)c1c(NC(=O)C2COc3ccccc3O2)sc(C)c1C (centres undefined)	/	/	/	/	0.1	27	20	/	7	-9
COc1ccc(-n2c(SCC(=O)NCC3CCCO3)nc3c([nH]c4ccccc43)c2=O)cc1 (centres undefined)	i	7	10	-1.3	3.7	8	-5	-2.1	/	-8
COc1ccc(-c2csc(NC(=O)CN3C(=O)NC4(CCCC4)C3=O)n2)c(OC)c1	i	-14	-18	2.5	9.0	47	11	0.7	-2	-6
CCOC(=O)C1=NNC2(c3ccc(C)cc3)C(=O)N(c3ccccc3)C(=O)C12 (centres undefined)	i	0	-1	4.5	3.2	9	-20	-1.3	-1	2
CCOc1ccccc1N1CCN(CC(=O)N(C2CCCC2)C2CCS(=O)(=O)C2)CC1 (centres undefined)	i	16	6	2.0	/	24	/	-1.7	-14	/
Oc1cc(Nc2cccnc2)cc2cccnc12	i	83	-22	35	/	90*	/	39*	9	/

An excerpt, so the mix of outcomes need not match the whole.
